KCNQ2 block – KCNQ2 potassium channel inhibitors, primary screen, cell-based, CHO-K1, FluxOR thallium flux, B-score (AID 2156); 310,000 tested, 1.1% active; 20 min; hits give low values; only compounds with negative scores are shown here; some inactives read as strong as hits; B-score at 10 µM;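 active means fluorescence ratio B-score at most minus 3 library SDs, with starting brightness B-score within 2 library SDs, cut at about -5.5 in these data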
Target sequence (O88943 whole entry, looked up): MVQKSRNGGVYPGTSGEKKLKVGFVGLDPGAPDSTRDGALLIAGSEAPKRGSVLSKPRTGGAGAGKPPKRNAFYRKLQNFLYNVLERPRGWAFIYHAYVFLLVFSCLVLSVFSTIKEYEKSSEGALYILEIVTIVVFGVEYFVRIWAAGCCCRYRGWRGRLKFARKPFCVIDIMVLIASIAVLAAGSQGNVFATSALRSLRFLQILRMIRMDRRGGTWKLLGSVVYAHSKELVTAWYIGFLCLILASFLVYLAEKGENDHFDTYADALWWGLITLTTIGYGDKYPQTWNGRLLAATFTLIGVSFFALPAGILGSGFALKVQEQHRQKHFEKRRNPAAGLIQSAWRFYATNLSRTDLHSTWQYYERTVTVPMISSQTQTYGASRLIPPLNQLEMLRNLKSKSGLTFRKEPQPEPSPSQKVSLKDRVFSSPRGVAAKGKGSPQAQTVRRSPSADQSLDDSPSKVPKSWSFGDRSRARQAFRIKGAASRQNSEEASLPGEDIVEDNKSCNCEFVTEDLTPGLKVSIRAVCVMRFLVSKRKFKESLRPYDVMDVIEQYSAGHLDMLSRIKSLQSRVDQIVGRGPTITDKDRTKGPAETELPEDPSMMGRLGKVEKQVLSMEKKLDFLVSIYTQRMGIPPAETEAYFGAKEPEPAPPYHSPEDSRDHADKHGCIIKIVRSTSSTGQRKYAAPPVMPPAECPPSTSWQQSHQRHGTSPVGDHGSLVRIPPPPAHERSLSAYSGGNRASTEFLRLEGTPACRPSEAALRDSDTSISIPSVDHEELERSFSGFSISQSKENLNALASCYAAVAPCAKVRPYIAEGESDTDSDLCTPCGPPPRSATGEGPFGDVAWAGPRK
KCNQ2 block baseline – second read-out of KCNQ2 block, no call of its own (marks repeat the call); B-score; measured here: initial fluorescence intensity artifact check;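 brightness before thallium and not channel activity; 0 = typical well and far values either way flag optical interference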
Starred values were filed as active, the others as inactive; i = inactive. Some of the compounds tested, so the mix of outcomes need not match the whole.

SMILES | KCNQ2 block | KCNQ2 block baseline
COc1ccc(-n2c(CN3CCN(c4ccc(F)cc4)CC3)nc3ccc([N+](=O)[O-])cc3c2=O)c(OC)c1 | i | -1.83
Cc1ccc(C)n1-c1ncc(Br)cn1 | i | 0.46
CCCCCCCCCC(=O)OCC(O)CO (configuration not stated) | i | 2.17
CCn1c(N)c(C(=O)NC2CCCCC2)sc1=S | i | -0.03
CC(C)NCC1CCc2cc(CO)c([N+](=O)[O-])cc2N1 (configuration not stated) | i | 2.69
O=C(NCc1ccc(Cl)cc1)c1ccc(CSc2nc3ccncc3[nH]2)cc1 | i | 0.13
C/C(CC(=O)NC1CCCCC1)=N\NC(=O)c1ccccn1 | i | 0.18
CCCCCCC(C)OC(=O)Nc1cccc2ccccc12 (configuration not stated) | i | -0.25
COc1ccc(C(c2c[nH]c3ccccc23)c2c[nH]c3ccccc23)cc1O | i | 1.89
COc1ccc(C2/C(=C(/O)c3ccc(F)cc3)C(=O)C(=O)N2CCCN2CCOCC2)cc1OC (configuration not stated) | i | -2.37
COC(=O)CSc1nnc(CNc2nc(-c3ccccc3)cs2)n1C | i | 0.04
O=C1C2C(c3ccccc3)C=CC(c3ccccc3)C2C(=O)N1c1ccccn1 (configuration not stated) | i | -0.95
CC(=O)c1cc(C#N)c(Oc2ccc(Cl)cc2Cl)nc1C | i | -0.05
COc1ccccc1C(=O)NCCn1cc(SCC(=O)Nc2nnc(C)s2)c2ccccc21 | i | -0.49
COc1ccc(CCN2C(=O)C3C4C=CC(C4)C3C2=O)cc1OC (configuration not stated) | i | -0.38
CC1CC(C)C[N+](=C2C=C(N3CCCC3)CC(C)(C)C2)C1 (configuration not stated) | i | 1.09
Cc1cc(NC(=O)CS(=O)(=O)c2c[nH]c3ccccc23)no1 | i | 4.73
CN(C)c1ccc(CN(C(=O)c2ccc(Cl)c([N+](=O)[O-])c2)C2CCS(=O)(=O)C2)cc1 (configuration not stated) | i | -0.39
COc1ccc(-c2csc(Nc3ncccc3C)n2)cc1 | i | -1.34
O=C(CNC(=O)c1ccc(Cl)cc1Cl)OCC(=O)N1CCN(c2ccccc2)CC1 | i | 0.92
Cc1nc2ccc(-c3nc4ccccc4o3)cc2[nH]1 | i | -0.16
COC(=O)C1CSC(C(=O)OC)N1C(=O)Nc1ccc(Cl)cc1 (configuration not stated) | i | 1.07
O=C(CN1N=C(C(F)(F)F)CC1(O)c1ccc([N+](=O)[O-])cc1)c1ccccc1 (configuration not stated) | i | 1.78
COC(=O)CSc1nnc(-c2cnccn2)n1C | i | -1.99
COc1ccccc1CNc1nc(S(=O)(=O)c2ccccc2)c(Cl)s1 | i | 0.05
COc1cccc(OCc2cc(C(=O)N3CCN(C4CCCCC4)C(=O)C3)no2)c1 | i | -0.65
CC1(C)C2CCC(C2)C1(C)NC(=O)CNCC1CCCCC1 (configuration not stated) | i | -0.08
COc1ccc2[nH]c(C(=O)O)c(NC(=O)c3ccccc3[N+](=O)[O-])c2c1 | i | 1.35
CC(C)n1cc(NC(=O)COc2ccccc2Cl)cn1 | i | 0.7
O=C(CCS(=O)(=O)c1ccc(F)cc1)Nc1nnc(-c2cccs2)o1 | i | -0.66
NC(=O)C1(N2CCCCC2)CCN(S(=O)(=O)c2ccccc2)CC1 | i | -1.32
O=C(N/N=C/c1cccc2ccccc12)C(=O)N1CCCC1 | i | -1.34
CCOc1[nH]n(-c2ccc(Cl)cc2)c(=O)c1C=Nc1ccc(Cl)cc1 | i | -0.46
CCc1c(O)nc(SCC(=O)Nc2ccccc2)n(-c2ccccc2)c1=O | i | -0.12
Cc1ccc(C)c(-c2csc(Nc3ncccn3)n2)c1 | i | -0.05
CC1CCCCN1Cc1c(O)ccc2c(=O)c(-c3nc4ccccc4s3)coc12 (configuration not stated) | i | -1.76
CCN(CCn1cccn1)Cc1c(C(=O)N2CCCCCCC2)nc2ccc(Cl)cn12 | i | 1.15
CCNC1CCS(=O)(=O)C1 (configuration not stated) | i | -0.06
CCn1cc(S(=O)(=O)NC(C)c2cc(OC)ccc2OC)cn1 (configuration not stated) | i | -2.04
Cc1c(C(=N)C(C#N)C#N)c(=N)oc2c1ccc1ccccc12 | i | 0.06
Nc1cccnc1S(=O)(=O)c1ccccc1 | i | 1.33
COCCN(C(=O)Cc1ccc(OC)c(OC)c1)c1nc(-c2cc(OC)ccc2OC)cs1 | i | 0.04
O=C(Cc1n[nH]c(=O)c2ccccc12)OCC(=O)c1ccc2c(c1)OCCO2 | i | 1.39
COc1ccc(-n2cc(CNCCN3CCOC3=O)c(-c3ccccc3Cl)n2)cc1 | i | -0.39
CC(C)(CNC(=O)c1ccc(Cl)c(S(=O)(=O)N2CCc3ccccc3C2)c1)N1CCOCC1 | i | 0.66
CCN(CC)c1ccc(NC(=O)Nc2cccc3ccccc23)cc1 | i | 0.78
COc1cc(Cl)ccc1OCc1cc(C(=O)N2C[C@@H]3CCC[C@H]2C3)no1 | i | 1.01
O=C(NCC1CCCO1)c1cccc(Oc2ccc([N+](=O)[O-])cc2Cl)c1 (configuration not stated) | i | -0.04
Cc1ccc(S(=O)(=O)N2CCN(Cc3ccco3)CC2)cc1C | i | 2.42
O=C(Nc1ccc(Br)cc1)N1CCCCCCC1 | i | -0.11
COCCNC(=O)c1c[nH]n2c(=O)cc(C3CCN(C(=O)OC(C)(C)C)CC3)nc12 | i | -0.02
CCC(=O)Nc1ccc(NC(=O)CCc2ccccc2)cn1 | i | 0.32
CCC1CN(C(=O)NCc2cccc(OC)c2)c2cc(Cl)ccc2O1 (configuration not stated) | i | -0.36
CC(C)(C)c1ccc(C(=O)Nc2ccc(O)c3c(=O)cc(-c4ccccc4Cl)oc23)cc1 | -7.01* | -1.06*
CCOc1ccc2nc(C)cc(Nc3cccc([N+](=O)[O-])c3)c2c1 | i | -1.65
O=C(O)c1ccccc1-c1ncc(-c2ccccc2)o1 | i | -0.9
CC1CCc2c(C(=O)NCc3ccccn3)csc2C1 (configuration not stated) | i | 0.39
O=C(Nc1ccc(Nc2ccncc2)cc1)c1ccc(Nc2ccnc3ccc([N+](=O)[O-])cc23)cc1 | i | 1.03
CCC(=O)N1c2ccc(S(=O)(=O)NCCc3ccc(OC)c(OC)c3)cc2CC1C (configuration not stated) | i | 4.49
CCc1c(C)nc2ncnn2c1N1CCC(C(=O)Nc2cccc(C(C)=O)c2)CC1 | i | 0.9

Compound profiles, as listed above. Order of screens: KCNQ2 block	KCNQ2 block baseline
`CC1CCc2c(C(=O)NCc3ccccn3)csc2C1` (configuration not stated) across the screens: i	0.39
`Cc1ccc(C)c(-c2csc(Nc3ncccn3)n2)c1` across the screens: i	-0.05
`CC(C)(CNC(=O)c1ccc(Cl)c(S(=O)(=O)N2CCc3ccccc3C2)c1)N1CCOCC1` across the screens: i	0.66
`COCCNC(=O)c1c[nH]n2c(=O)cc(C3CCN(C(=O)OC(C)(C)C)CC3)nc12` across the screens: i	-0.02
`Cc1cc(NC(=O)CS(=O)(=O)c2c[nH]c3ccccc23)no1` across the screens: i	4.73

The listing continues:
SMILES | KCNQ2 block | KCNQ2 block baseline
CCN(CC)S(=O)(=O)c1ccc(N2CCCCC2)c(NC(=O)c2ccncc2)c1 | i | -0.59
Oc1ccc(-c2nncn2-c2ccccc2)cc1 | i | 0.03
COc1ccc(C)cc1N(CC(=O)NC1CCCC1)C(=O)CCC(=O)Nc1nc(C)cs1 | i | -0.51
Cc1cccc(NC(=O)C23CCC(C)(C(=O)O2)C3(C)C)c1 (configuration not stated) | i | -0.17
COc1ccccc1N(CC(O)COc1ccccc1)S(=O)(=O)c1ccccc1 (configuration not stated) | i | -0.04
CC(C)CN(C(=O)CCC(=O)OCC(=O)NCCc1ccccc1)c1c(N)n(CC(C)C)c(=O)[nH]c1=O | i | -1.35
CC(C)(C)c1ccccc1OCCN1CCCC1 | i | 0.29
COC(=O)CC1=C(C(=O)OC)[C@@H](c2ccccc2[N+](=O)[O-])C(C#N)=C(N)O1 | i | -0.02
Cc1cccc(NC(=O)Cn2c(=O)n(CCC(=O)NC3CCCC3)c(=O)c3ccccc32)c1 | i | -0.25
O=C(CCc1nc2ccccc2s1)OCc1ccccc1 | i | 0.35
COc1ccc(NC2c3ncccc3C(=O)N2Cc2cccs2)cc1 (configuration not stated) | i | 0.11
CCOc1ccc(CNC(=O)CCCc2cn(C)c3ccccc23)cc1 | i | -0.52
C=CCOc1ccc(C2C(C(=O)c3ccco3)=C(O)C(=O)N2c2nnc(C)s2)cc1 (configuration not stated) | i | 10.1
CCOc1ccc(C(CCc2ccccc2)NC(=O)c2ccc(OC)c(OC)c2)cc1OCC (configuration not stated) | i | -0.57
COc1ccccc1OCCC(=O)OCC(=O)c1c(N)n(C)c(=O)n(C)c1=O | i | 0.71
CCN(CC(=O)Nc1ccc(N2CCOCC2)cc1)CC(=O)NC(C)(C)C | i | 0.54
CC[N+](C)(CC)CCC/C(=N/O)C(O)(c1ccccc1)c1ccccc1 | i | 0.08
O=C(COc1ncnc2scc(-c3ccc(F)cc3)c12)NCc1ccco1 | i | -2.54
COC(=O)/C(=C/Nc1ccc(O)cc1)[N+](=O)[O-] | i | -0.74
O=C(C1CCCN(S(=O)(=O)c2ccccc2)C1)N1CCCCCC1 (configuration not stated) | i | 0.28
O=C(c1ccco1)N1CCN(C(=O)N2CCCC2)CC1 | i | -0.03
COc1ccc(N(CC(=O)Nc2ccc3c(c2)OCO3)S(=O)(=O)c2ccc(F)cc2)cc1 | i | -0.77
O=C(Nc1ccc(Cl)cc1)OCc1cn(-c2ccccc2)nn1 | i | 1.77
CC(=O)Nc1ccc(S(=O)(=O)NNC(=O)COc2ccc(C)cc2)cc1 | i | 0.15
Cc1nn(-c2ccccc2)c(C)c1NC(=O)COC(=O)Cc1ccccc1F | i | -1.3
O=C(O)c1nnn(-c2cc(C(F)(F)F)cc(C(F)(F)F)c2)c1-c1ccccc1 | i | -1.15
c1ccc2oc(SCc3cn4ccsc4n3)nc2c1 | i | -0.15
Cc1cccc(N(CC(=O)Nc2ccc(-c3nc4ccc(C)cc4s3)cc2)S(C)(=O)=O)c1 | i | -0.26
CCCN(CC(=O)Nc1ccccc1OC)C(=O)c1ccc(=O)[nH]c1 | i | -1.41
CC(C)=C1C2CCC1C1C(=O)N(NC(=O)COc3ccc(Cl)c(C)c3)C(=O)C21 (configuration not stated) | i | -0.32
CCC(C)[C@H](NC(=O)OC(C)(C)C)C(=O)NCC1CCC(C(=O)N[C@@H](Cc2ccccc2)C(=O)O)CC1 (some centres not stated) | i | 0.68
O=c1/c(=C/c2ccccc2)sc2nnc(-c3cccs3)n12 | i | -0.37
Cc1ccc(C)c(C(=O)Cn2ncc(Cl)c(Cl)c2=O)c1 | i | -0.05
COc1ccccc1CCn1cnc2c3cc(C)ccc3n(C)c2c1=O | -7.4* | -0.13*
CC(CCc1ccccc1)NC(=O)COc1cc(F)ccc1[N+](=O)[O-] (configuration not stated) | i | -0.01
CCOc1ccc(CCNC(=O)Cn2ncn3nc(-c4ccc(OC)cc4)cc3c2=O)cc1OCC | i | -0.84
CC1S/C(=N\N=C\c2cccc([N+](=O)[O-])c2)N(C(C)(C)C)C1=O (configuration not stated) | i | -0.34
CCCc1cc2c(cc1NC(=O)c1ccc(C(C)(C)C)cc1)OCO2 | i | -0.92
COc1ccc(OC)c(NC(=O)NNC(=O)COc2ccc(-c3ccccc3)cc2)c1 | i | -0.22
COc1cccc(C(=O)Oc2cc(-c3ccccc3)no2)c1 | i | 0.81

Among those listed so far, two contain bromine:
SMILES | KCNQ2 block | KCNQ2 block baseline
Cc1ccc(C)n1-c1ncc(Br)cn1 | i | 0.46
O=C(Nc1ccc(Br)cc1)N1CCCCCCC1 | i | -0.11

Next section
SMILES | KCNQ2 block | KCNQ2 block baseline
COc1ccc(C(=O)NC2CCN(C(=S)Nc3cc(C)cc(C)c3)CC2)cc1 | i | -2.21
Cc1ccc(C(c2nnnn2C2CCCC2)N2CCN3CCCC3C2)cc1 (configuration not stated) | i | -2.65
O=[N+]([O-])c1ccc(-c2ccc(/C=N/Nc3nc(N4CCCC4)nc(N4CCCC4)n3)o2)cc1 | i | 1.22
COc1ccc(-c2csc(NNC3=NCCCCC3)n2)cc1 | i | 1.69
c1ccc2c(c1)CCCN2Cc1nnnn1CC1CCCO1 (configuration not stated) | i | 3.9
COc1ccc(S(=O)(=O)Nc2ccc(N3CCOCC3)nc2)cc1 | i | 1.98
Cc1ccc(C)c(S(=O)(=O)N2CCN(C(=O)c3ccnn3C)CC2)c1 | i | -0.03
Cc1ccc(-c2csc(NC(=O)CCNC(=O)c3ccco3)n2)cc1 | i | 0.69
O=c1[nH]cccc1-c1nc2ccccc2n1Cc1ccccc1F | i | 0.4
CC1CCC(C(C)C)C(OCC(O)CN2CCN(Cc3ccccc3)CC2)C1 (configuration not stated) | i | -0.06
CCCOc1ccc(C(=O)CCNC(Cc2c[nH]c3ccccc23)C(=O)O)cc1 (configuration not stated) | -5.95* | -0.64*
CCN(CC)S(=O)(=O)c1cccc(C(=O)N/N=C(\C)c2cccs2)c1 | i | -1.07
O=C(NNS(=O)(=O)c1ccccc1[N+](=O)[O-])c1ccccc1[N+](=O)[O-] | i | -0.89
COc1ccc(CNc2ccc3c(c2)nc(C)n3C)cc1OC | i | 1.24

An excerpt from above in order of formula weight, ascending.
SMILES | KCNQ2 block | KCNQ2 block baseline
CC(C)NCC1CCc2cc(CO)c([N+](=O)[O-])cc2N1 (configuration not stated) | i | 2.69
Cc1ccc(C)c(-c2csc(Nc3ncccn3)n2)c1 | i | -0.05
CCOc1ccc(CNC(=O)CCCc2cn(C)c3ccccc23)cc1 | i | -0.52
O=C(CNC(=O)c1ccc(Cl)cc1Cl)OCC(=O)N1CCN(c2ccccc2)CC1 | i | 0.92

High-throughput results: PubChem, Johns Hopkins Ion Channel Center
